# Assay outcomes as filed in PubChem BioAssay.
# KCNQ2 inh: KCNQ2 potassium channel inhibitors, primary screen, cell-based, CHO-K1, FluxOR thallium flux, B-score (AID 2156). Potassium voltage-gated channel subfamily KQT member 2 (Rattus norvegicus), O88943. 20 min; active compounds read low; only compounds with negative scores are shown here; some inactives read as strong as hits. B-score at 10 µM. 310,000 compounds, 1.1% hits;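 active = fluorescence ratio B-score at most minus 3 library SDs, with starting brightness B-score within 2 library SDs, cut at about -5.5 in these data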
# Target sequence (O88943 whole entry, looked up): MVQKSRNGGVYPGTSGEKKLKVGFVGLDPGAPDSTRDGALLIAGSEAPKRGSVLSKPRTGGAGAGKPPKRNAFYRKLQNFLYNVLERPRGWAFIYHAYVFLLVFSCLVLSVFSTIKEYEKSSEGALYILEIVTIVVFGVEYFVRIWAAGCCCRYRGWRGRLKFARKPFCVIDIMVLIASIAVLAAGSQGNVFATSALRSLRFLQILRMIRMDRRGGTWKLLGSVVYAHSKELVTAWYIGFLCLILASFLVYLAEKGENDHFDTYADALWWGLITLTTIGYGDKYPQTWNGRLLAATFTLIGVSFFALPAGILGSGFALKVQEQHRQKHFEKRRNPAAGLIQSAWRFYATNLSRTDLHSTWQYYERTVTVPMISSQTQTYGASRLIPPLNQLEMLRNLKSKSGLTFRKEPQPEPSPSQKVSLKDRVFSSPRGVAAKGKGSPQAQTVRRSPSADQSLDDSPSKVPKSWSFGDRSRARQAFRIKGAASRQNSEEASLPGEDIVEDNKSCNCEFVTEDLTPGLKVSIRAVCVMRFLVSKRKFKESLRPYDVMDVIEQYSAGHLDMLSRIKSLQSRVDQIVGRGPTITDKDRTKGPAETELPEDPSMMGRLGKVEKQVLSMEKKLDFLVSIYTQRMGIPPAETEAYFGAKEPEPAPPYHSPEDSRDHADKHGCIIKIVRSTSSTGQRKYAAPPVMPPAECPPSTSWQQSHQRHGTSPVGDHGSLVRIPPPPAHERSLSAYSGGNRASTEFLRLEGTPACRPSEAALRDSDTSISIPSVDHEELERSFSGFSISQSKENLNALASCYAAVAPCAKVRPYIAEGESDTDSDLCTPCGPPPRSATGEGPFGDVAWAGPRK
# KCNQ2 inh baseline: further read-out of KCNQ2 inh, marked with its call; B-score; measured here: initial fluorescence intensity artifact check;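 brightness before thallium and not channel activity; 0 = typical well and far values either way flag optical interference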
# * marks the source's active call; other numbers are inactive results; i = inactive. A portion of the library; the hit share may differ from the screen's.
SMILES,KCNQ2 inh,KCNQ2 inh baseline
COc1cc(O)c(C(CC(=O)N2CCN(c3ccccc3)CC2)c2ccc(N(C)C)cc2)c(OC)c1 (stereo not drawn),i,-0.01
O=C(CCn1c(=O)c2ccccc2n(CC(=O)NCCC2=CCCCC2)c1=O)NCc1ccco1,i,-0.17
CC(C)c1nc(-c2ccccc2)c(-c2ccccc2)[nH]1,i,0.02
Cc1cc(C)cc(Nc2cc(=O)n(C3CCCCC3)c(=O)[nH]2)c1,i,0.28
COc1ccccc1NC(=S)NN1CCN(C)CC1,i,0.3
CCOCCOC(=O)C1=C(C)Nc2ccc(C)cc2S1,i,-1.18
CCN(CC)S(=O)(=O)c1ccc(N2CCOCC2)c(NC(=O)Cc2ccc(Cl)cc2)c1,i,-0.62
COc1cccc(-c2cccc(NC(=O)C3CCN(C4CCC4)CC3)c2)c1,i,2.83
O=C(NC1CCSc2ccccc21)c1ccc(F)c(S(=O)(=O)N2CCOCC2)c1 (stereo not drawn),i,-1.46
Cc1nc(CSc2ccc(Cl)cc2)cc(N2CC(C)OC(C)C2)n1 (stereo not drawn),i,-0.14
CN(C(=O)C1CCCN(c2ncnc3c2nc2n3CCCCC2)C1)c1cccc(Cl)c1 (stereo not drawn),i,0.51
CC1=C(C(=O)Nc2cccc(C)n2)C(c2ccc3c(c2)OCO3)C2=C(CC(c3ccco3)CC2=O)N1 (stereo not drawn),i,0.75
Cc1onc(-c2ccccc2)c1C(=O)N(Cc1ccccc1)C(C)C,i,-0.33
O=C(c1ccc(Br)s1)N1CCc2ccccc2C1,i,-0.15
COC(=O)C1=C(N)Oc2cc(C)n(C)c(=O)c2C1c1ccc(Cl)cc1 (stereo not drawn),i,-0.02
Cc1c(Br)c([N+](=O)[O-])nn1C(C)C(=O)N1CCc2ccccc2C1 (stereo not drawn),i,1.14
CCC(=O)N(Cc1cc(=O)[nH]c2ccccc12)c1ccc(OC)cc1,i,0.42
COc1ccc(-c2cn3cccnc3n2)cc1Br,i,0.88
COc1ccc(CCN=Cc2c(C)[nH]n(-c3ccc([N+](=O)[O-])cc3)c2=O)cc1OC,i,-0.32
CCOC(=O)COc1ccc(S(=O)(=O)N2CCc3ccccc3C2)cc1,i,2.99

# Single values from the results shown.
# Value of O=C(c1ccc(Br)s1)N1CCc2ccccc2C1 in KCNQ2 inh baseline: -0.15
# Value of CN(C(=O)C1CCCN(c2ncnc3c2nc2n3CCCCC2)C1)c1cccc(Cl)c1 (stereo not drawn) in KCNQ2 inh baseline: 0.51
# Value of COc1ccc(-c2cn3cccnc3n2)cc1Br in KCNQ2 inh baseline: 0.88

# Additional entries:
SMILES,KCNQ2 inh,KCNQ2 inh baseline
CCC1CCCCN1CCCNS(=O)(=O)c1ccc2c(c1)oc(=O)n2C (stereo not drawn),i,0.66
Cc1c2c([n+]3n1CCC3)CC(C)(C)CC2=O,i,0.05
Cc1ccc(OCC(=O)Nc2ccccc2Sc2ccccc2)c([N+](=O)[O-])n1,i,0.42
O=[N+]([O-])c1cccc(C=Nc2cccc3ccccc23)c1O,i,1.27
Cc1noc(C)c1S(=O)(=O)Nc1ccc(C(=O)NCCc2ccccc2)cc1,i,1.68
CCC(c1nnnn1Cc1ccco1)N(Cc1cc2cc(OC)ccc2[nH]c1=O)C1CCCCC1 (stereo not drawn),i,1.17
CC(=O)NC(=S)NNC(=O)CCc1ccccc1,i,0.03
CC(C)(C)OC(=O)N1CCC(c2c(C(=O)NCC3CCN(C4CCCC4)C3)cnn2-c2cccc(Cl)c2)CC1 (stereo not drawn),i,-0.78
Nc1cc(Cl)nc(N/N=C/c2c(O)ccc3ccccc23)n1,i,0.94
Cc1ccccc1Cn1nc(C)c(NC(=O)c2noc3c2CCc2ccccc2-3)c1C,i,-1.2
C=CCn1c(CNC(=O)c2ccccc2F)nnc1SCC(=O)N1CCOCC1,i,0.05
CCCCn1c(=O)c(CCC(=O)OCC(=O)Nc2cccc3ccccc23)nc2ccccc21,i,-1.03
Cc1cc(F)ccc1NC(=O)C(C)n1c2ccccc2c2nc(=O)cc(C)n21 (stereo not drawn),i,-1.42
O=C(CN1C(=O)NC2(CCCCCC2)C1=O)c1ccccc1,i,0.62
CCCCOC(=O)CSc1nc(N)c(C#N)c(-c2ccc(OC)cc2)c1C#N,i,-1.3
CCn1c(SCC(=O)NC2CC2)nnc1C(C)Oc1ccccc1 (stereo not drawn),i,0.08
Cc1ccc2oc(C(=O)N(Cc3ccccc3)C3CCS(=O)(=O)C3)c(C)c2c1 (stereo not drawn),i,1.11
CC(=O)NCc1ccc(C(=O)CCl)cc1,i,0.62
CCOc1ccc(NC(=O)CN(C)C(=O)C2=COCCO2)cc1OCC,i,-0.5
CC1CCN(c2nc3ccc(C(=O)N4CCN(Cc5ccc6c(c5)OCO6)CC4)cc3s2)CC1,i,0.94

# Shown field by field: part of the list above
Cc1ccc2oc(C(=O)N(Cc3ccccc3)C3CCS(=O)(=O)C3)c(C)c2c1 (stereo not drawn)
- KCNQ2 inh: i
- KCNQ2 inh baseline: 1.11
CC(=O)NCc1ccc(C(=O)CCl)cc1
- KCNQ2 inh: i
- KCNQ2 inh baseline: 0.62
CCOc1ccc(NC(=O)CN(C)C(=O)C2=COCCO2)cc1OCC
- KCNQ2 inh: i
- KCNQ2 inh baseline: -0.5
CC1CCN(c2nc3ccc(C(=O)N4CCN(Cc5ccc6c(c5)OCO6)CC4)cc3s2)CC1
- KCNQ2 inh: i
- KCNQ2 inh baseline: 0.94

# Next part:
SMILES,KCNQ2 inh,KCNQ2 inh baseline
CCc1ccc(-c2cc(C(=O)NCc3ccccn3)c3ccccc3n2)cc1,i,0.03
N#Cc1nc(COc2ccc(Cl)cc2)oc1N1CCN(Cc2ccccc2)CC1,-6.86*,-0.72*
COc1cc2c(cc1OC)C(c1ccccc1O)NCC2 (stereo not drawn),i,-0.01
COc1ccccc1-c1n[nH]c2c1[C@H](C)CC[C@H]2C(C)C,-10.1*,-2.23*
COC(=O)CSc1nc(C)c(C(=O)Nc2ccccc2C)c(-c2ccc(Cl)cc2)c1C#N,i,1.23
CC(C)c1ccccc1NC(=O)COC(=O)CCN1C(=O)/C(=C\C=C\c2ccccc2)SC1=S,i,1.25
Cc1ccccc1/C=C/c1nc2ccccc2c(=O)n1CCc1ccccc1,i,-1.59
COCCNC(=O)C1(C(F)(F)F)CC(CCCO)CCCO1 (stereo not drawn),i,-0.22
O=C(c1ccc2c(c1)OCO2)[C@@H]1[C@@H]2C(=O)N(C3CCCCC3)C(=O)[C@@H]2C2c3ccccc3C=CN21 (stereo partly drawn),i,0.32
CCC(CC)c1nnc(NC(=O)CCc2ccc(OC)cc2)s1,i,0.01
CCOC(=O)C1(CC2CC2)CCN(C(=O)c2cc(C3CC3)nc3ccccc23)CC1,i,-0.41
CCOC(=O)C1=NOC(Cn2cc(C#N)c(=O)n(C)c2=O)C1 (stereo not drawn),i,-0.76
CCN(CC)S(=O)(=O)c1ccc(C)c(NC(=O)Cn2cnc3cc([N+](=O)[O-])ccc3c2=O)c1,i,-0.44
COc1cccc(C(=O)Nn2cnnc2)c1OC,i,3.11
Cc1nc(-c2ccc(S(=O)(=O)N3CCN(Cc4ccccc4)CC3)s2)cs1,i,-0.28
CCOC(=O)c1c(C)[nH]c(C(=O)OCCOc2ccc(Cl)cc2)c1C,i,-0.33
COc1ccc(OC)c(Nc2nc(-c3sc(NC(=O)CC(C)C)nc3C)cs2)c1,i,-0.5
O=C(CN1CCN(c2ccccc2)CC1)Nc1ccc2c(c1)CCC2,i,0.08
COC(=O)c1ccccc1NC(=O)c1cc(-c2cccs2)on1,i,0.4
O/N=C\c1cnc(N2CCN(c3ccccc3)CC2)s1,i,-0.44
CC(C)(C)NC(=O)COc1ccc2oc3c(c2c1)CCCC3,i,0.65
COc1ccc(-c2nnc3c4ccccc4c(C)nn23)cc1S(=O)(=O)N1CCN(CCO)CC1,i,1.15
CN1C(=O)C2C(c3ccc(N(C)C)cc3)NN(Cc3ccccc3)C2C1=O (stereo not drawn),i,1.55
CCOC(=O)C1=C(C)NC(=O)NC1/C=C/c1ccccc1 (stereo not drawn),i,0.1
O=C(CSc1ccc2nnc(-c3cccc(F)c3)n2n1)NCc1ccco1,i,-0.02
COc1cc(/C=C/C(=O)c2c(O)cc(C)oc2=O)cc(OC)c1O,i,1.51
O=C(CSc1ncn[nH]1)NCCC(c1ccccc1)c1ccccc1,i,0.03
CCCN1CCC(NC(=S)Nc2ccc([N+](=O)[O-])cc2)CC1,i,-0.01
CC(OC(=O)c1ccncc1)C(=O)NC1CCCC1 (stereo not drawn),i,-0.13
COCCC(=O)N1CCCC(C(=O)c2ccc(Oc3ccccc3)cc2)C1 (stereo not drawn),i,0.03
Cc1ccc(C2=NN(C(=O)c3ccco3)C(O)(C(F)(F)F)C2)cc1 (stereo not drawn),i,-0.97
O=C(OC(c1ccccc1)c1nccc2ccccc12)c1cc([N+](=O)[O-])cc([N+](=O)[O-])c1 (stereo not drawn),i,0.23
Cc1ccc(S(=O)(=O)NC(C(=O)OCC(=O)NC2CCS(=O)(=O)C2)C(C)C)cc1 (stereo not drawn),i,-0.01
Cc1cc(OC(=O)c2c(C)cc(O)cc2O)cc(O)c1C(=O)O,i,-0.83
Cc1c(NC(=O)c2cc(-c3ccccc3)on2)c(=O)n(-c2ccccc2)n1C,i,2.56
Nc1cccc(Oc2ccc3c(c2)C(=O)NC3=O)c1,i,3.46
O=C1c2ccccc2C(=O)c2cc(NC(=O)C3CC3)ccc21,i,0.7
CCCNC(=O)[C@@H]1CCCN1C(=O)[C@@H]1Cc2ccccc2CN1,i,0.49
Cc1c(C#N)c2ccccc2n1CC(=O)NCc1ccccc1,i,-0.69
CC(=O)N1CC2(C)CN(C(C)=O)CC(C)(C1)C2=O,i,-0.01
CC(C)Oc1ccc(Cc2cnc(N)nc2N)cc1,i,0.98
O=C(CCCN1C(=O)CSc2ncccc21)N1CCN(Cc2ccccc2)CC1,i,0.82
CCOc1ccc(C2CC(c3ccc(OC)c(OC)c3)n3nc(N)nc3N2)cc1 (stereo not drawn),i,0.82
O=C([O-])c1ccccc1-[n+]1c(-c2ccccc2)cc(-c2ccccc2)cc1-c1ccccc1,i,-0.04
O=C(O)Cn1c(=O)c2c3c(sc2n(Cc2ccc(Cl)cc2Cl)c1=O)CCCC3,i,1.77
Cc1c(Cl)cccc1NC(=S)NCCc1ccc(C(F)(F)F)cc1,i,-0.11
CCc1cc2c(=O)c(Oc3ccccc3)c(C)oc2cc1O,i,0.09
O=C(COc1ccc(S(=O)(=O)NCc2ccccc2)cc1)N1CCOCC1,i,-0.04
O=C1CSC(=S)N1/N=C/c1cccc(C(F)(F)F)c1,i,-0.01
Cc1cc(NC(=O)Cn2c(=O)n(CCCCC(=O)NC3CCN(Cc4ccccc4)CC3)c(=O)c3ccccc32)n[nH]1,i,3.09

# (list continues)
SMILES,KCNQ2 inh,KCNQ2 inh baseline
COc1ccc(NC(=S)Nc2cccc(Cl)c2Cl)cc1OC,i,0.15
O=C(NC1CCCCC1)N1CCC(c2nc(-c3ccc(S(=O)(=O)N4CCCC4)cc3)no2)CC1,i,0.97
Cc1ccc2cc(CCNC(=O)C(C)(C)C)c(=O)[nH]c2c1,i,1.5
Nc1ccc(N)c(C(=O)O)c1,i,0.37
CC(C)Cn1c(=O)c(C(=O)N/N=C/c2cccc(F)c2)c(O)c2ccccc21,i,0.67
Cc1ccc2c(c1)N(CCCC(=O)NCc1cccnc1)C(=O)CO2,i,1.23
O=C(C=C=Nc1ccccc1)C(=O)N=C=Cc1ccccc1,i,-0.21
CC(=O)C1=C(C)Nc2cc(C(F)(F)F)ccc2S1,i,1.18
O=C(Nc1ccc(CN2CCCCC2)cc1)Nc1ccccc1Cl,i,0.79
c1ccc(CN2CCN(c3ncnc4nc[nH]c34)CC2)cc1,i,-2.3

# Molecules listed so far with a thiophene ring, fused or not:
SMILES,KCNQ2 inh,KCNQ2 inh baseline
O=C(c1ccc(Br)s1)N1CCc2ccccc2C1,i,-0.15
Cc1nc(-c2ccc(S(=O)(=O)N3CCN(Cc4ccccc4)CC3)s2)cs1,i,-0.28
COC(=O)c1ccccc1NC(=O)c1cc(-c2cccs2)on1,i,0.4
O=C(O)Cn1c(=O)c2c3c(sc2n(Cc2ccc(Cl)cc2Cl)c1=O)CCCC3,i,1.77

# Later entries.
SMILES,KCNQ2 inh,KCNQ2 inh baseline
CN(c1ccc(OCC(=O)NC2=NCCS2)cc1)S(=O)(=O)c1ccc(F)cc1,i,-0.12
CC(/C=N/N1C(=O)CSC1=S)=C\c1ccccc1,i,1.84
Cc1ccc(CC(=O)Nc2nc3ccccc3[nH]2)cc1C,i,-1.23
Cn1c(CN2CCCC2)nc2cc(NC(=O)c3cccs3)ccc21,i,3.24
Cn1cccc1C(=O)Nc1nccs1,i,-0.1
O=C(NCCOc1ccc(Cl)cc1)C1CC(=O)N(c2ccc(F)cc2)C1 (stereo not drawn),i,1.85
COc1cccc(/C=C2\SC(=N)N(c3ccc(F)cc3)C2=O)c1,i,-1.8
O=C(Nc1c2c(nn1-c1ccccc1)CS(=O)(=O)C2)c1ccco1,i,0.04
O=C(CN(Cc1ccco1)C(=O)CNS(=O)(=O)c1ccccc1)NCc1ccc(F)cc1,i,0.5
CCCCOc1ccc(C(=O)NCCc2cccs2)cc1,i,-1.55
CCOc1ccc(N(C(=O)C2CCCO2)C2C=CS(=O)(=O)C2)cc1 (stereo not drawn),i,0.06
COc1ccc(N2CCN(C(=O)c3c(C)nn(-c4ccccc4)c3C)CC2)cc1,i,1.38
O=S(=O)(c1ccc(F)cc1)N1CCN(C(=S)NC2CCCC2)CC1,i,0.89
COc1ccc(NC(=O)CSCc2cc(=O)n3nc(C4CC4)sc3n2)cc1,i,0.91
CCc1nn(C(CC)C(=O)NCCCN2CC(C)CC(C)C2)c(=O)c2cc3oc(C)cc3n12 (stereo not drawn),i,1.28
CC(C)OCc1c(C(=O)OC/C(O)=C(\C#N)c2nc3ccccc3[nH]2)oc2ccccc12,i,-1.07
CCC(=NCCc1c(C)[nH]c2ccc(C)cc12)C1=C(O)CC(c2ccccc2)CC1=O (stereo not drawn),i,0.96
Cc1cc(NC(=O)NCc2ccccc2)c(=O)n(Cc2ccccc2F)c1,i,-0.63
